# RecA splice inh: Mtb RecA intein splicing inhibitors, primary screen, biochemical, fluorescence, HTS; cell-free RecA intein splicing; inhibition, %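 (about 9 µM by stock and volumes)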; 290,000 compounds, 0.75% hits; AID 2221, 2009; in the data active = inhibition above about 30%; inconclusive = no clear call, values can overlap the other calls;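 also: 0% = vehicle wells and 100% = reference inhibitor control wells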
# Target sequence (P9WHJ3 whole entry, looked up, canonical isoform): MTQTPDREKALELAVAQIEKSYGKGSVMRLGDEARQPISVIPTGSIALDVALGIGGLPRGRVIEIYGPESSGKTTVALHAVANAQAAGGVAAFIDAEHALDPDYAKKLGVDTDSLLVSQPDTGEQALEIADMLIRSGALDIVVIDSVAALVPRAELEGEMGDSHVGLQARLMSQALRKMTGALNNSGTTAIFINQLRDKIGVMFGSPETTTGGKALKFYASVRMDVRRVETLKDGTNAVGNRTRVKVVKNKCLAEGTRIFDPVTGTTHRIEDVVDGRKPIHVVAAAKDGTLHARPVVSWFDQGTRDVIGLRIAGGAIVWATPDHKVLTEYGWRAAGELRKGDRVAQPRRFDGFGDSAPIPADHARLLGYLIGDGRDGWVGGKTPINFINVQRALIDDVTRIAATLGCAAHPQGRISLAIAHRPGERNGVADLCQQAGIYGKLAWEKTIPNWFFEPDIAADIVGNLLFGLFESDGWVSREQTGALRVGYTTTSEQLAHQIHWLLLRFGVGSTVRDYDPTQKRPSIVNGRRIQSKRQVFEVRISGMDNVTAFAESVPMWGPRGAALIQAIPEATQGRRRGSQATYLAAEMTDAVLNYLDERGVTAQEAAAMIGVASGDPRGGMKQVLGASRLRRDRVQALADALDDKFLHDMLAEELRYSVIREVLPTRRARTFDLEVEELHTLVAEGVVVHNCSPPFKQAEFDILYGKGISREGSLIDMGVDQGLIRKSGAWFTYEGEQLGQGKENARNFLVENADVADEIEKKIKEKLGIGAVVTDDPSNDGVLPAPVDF
# Arbovirus anti: antivirals against arbovirus infection, primary screen, cell-based, full library, 10K replicate subset. arbovirus infection cell-based antiviral screen. 200,000 compounds, 0.37% hits. inhibition, % at 10 µM;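 active = inhibition from about 30%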;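 also: bluetongue infection of BSR cells; cell survival read as ATP light after 72 h; 0% = infected wells without compound and 100% = uninfected wells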
# YopH inh: YopH tyrosine phosphatase inhibitors, primary screen, biochemical, fluorescence Ex485/Em525 | YopH tyrosine phosphatase [Yersinia enterocolitica] | inhibition, %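 (about 10 µM by stock and volumes)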 | 140,000 compounds, 0.16% hits | AID 898, 2007;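 active = inhibition of 50% or more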;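 also: controls were vehicle for no effect and minimum signal wells for full effect; inactives centre near -20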
# Mtb bLac sens: beta-lactam sensitization of Mtb H37Rv, H37Rv; M. tuberculosis H37Rv growth with meropenem, percent inhibition; hits of this screen are not shown here; inhibition, % at 25 µM; AID 434955, 2010; 330,000 compounds, 0.27% hits;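 active = about 74% or more and at least 40 points above the plate without the antibiotic, then above 30% in a dose series; inconclusive = first-round hits that could not be retested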;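 also: growth measured after seven days incubation then overnight dye step; 0% = bacteria only wells and 100% = bacteria with antibiotic; twin plates without the antibiotic show which effects depend on it; some results filed as inactive read as strong as hits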
# Mtb growth: M. tuberculosis H37Rv growth inhibitors, H37Rv strain (AID 1626) | M. tuberculosis H37Rv growth inhibition; higher % means a stronger effect | 220,000 compounds, 0.95% hits | inhibition, % at 10 µM, or IC50 in µM where a hit was titrated;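 active = confirmed in a dose series; inconclusive = inhibition above 80% but not taken into the dose series; inactive = below 80% or under 30% at every dose of the series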;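 also: bacteria incubated seven days before Alamar blue readout; 0% = bacteria only wells and 100% = bacteria with antibiotic wells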
# Arbovirus anti repeat: further read-out of Arbovirus anti, marked with its call; inhibition, %; measured here: 10K subset replicate screen; many hits read low in the repeat;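 first of two repeat runs on a subset; 0% = infected and 100% = uninfected wells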
# Starred values were filed as active, the others as inactive; ? = inconclusive; / = no result given; & = joins results of further samples. Some of the compounds tested. The share of hits here may be higher or lower than overall.
SMILES,RecA splice inh,Arbovirus anti,YopH inh,Mtb bLac sens,Mtb growth,others
O=C1NC(=S)S/C1=C\c1cc2ccccc2nc1N1CCCCC1,23,/,/,3,3%,
CCOC(=O)c1ccc(NC(=S)NNC(=O)C2(C)CC2(Cl)Cl)cc1 (configuration not stated),1.5,-13,-34,8,1%,
CSc1ccc(NC(N)=S)cc1,-4.4,-1,/,92,-5%,
COC(=O)c1ccc(N2NC(=O)/C(=C/c3cc(OC)c(O)c(OC)c3)C2=O)cc1,8.0,/,/,47,/,
C[C@H](NC(=O)c1ccccc1Cl)C(=O)OCCOc1ccc(Cl)cc1,5.0,/,/,91,/,
COC(=O)/C(C#N)=C/c1c(N2CCN(c3ccccc3)CC2)nc2ccccn2c1=O,2.8,/,/,-1,/,
Clc1ccc(-c2nc3ccncc3[nH]2)cc1,-9.0,1,-26,-4,/,
CC1CC(=O)NN=C1c1ccc(N)c([N+](=O)[O-])c1 (configuration not stated),-1.3,0,-18,3,-2%,
Cc1cccc(NC(=S)NC(C)CCc2ccccc2)c1 (configuration not stated),4.1,17,-29,-4,12%,
Cc1ccc(C)c(OC(C)C(=O)Nc2ccc(S(=O)(=O)Nc3nccs3)cc2)c1 (configuration not stated),7.8,/,/,1,/,
O=c1c2ccccc2c(C=NC2CCS(=O)(=O)C2)c(O)n1-c1ccccc1 (configuration not stated),/,-4,-14,-5,0%,
Cc1cccc(-c2noc(CN(C(=O)c3ccc4c(c3)OCO4)C(C)C)n2)c1,-0.7,-15,-1,-2,-1%,
CCCCN(C(=O)CC1OC(=O)c2ccccc21)c1c(N)n(CCCC)c(=O)[nH]c1=O (configuration not stated),-0.8,/,/,-10,/,
Cc1ccc(C(=O)OCCN(C)Cc2ccccc2)cc1,-0.7,-3,/,0,-4%,
COC(=O)c1ccc(NC(=O)C2CC3CCC2C3)cc1 (configuration not stated),8.6,/,/,44,/,
CCSc1nnc(NC(=O)c2cccc(S(=O)(=O)N(C)c3ccc(C)cc3)c2)s1,-1.3,10,-23,2,-1%,
CSc1nnc(Cc2ccc3c(c2)OCO3)o1,-0.3,2,-22,5,-11%,
COc1cc(Br)c(-c2sc(Nc3ccccc3)n[n+]2-c2ccc(F)cc2)cc1OC,-1.4,/,/,85,/,
CCN(CC)c1ccc(NC(=O)c2ccccc2F)cc1,-0.1,-8,31,4,14%,
O=C(CCc1nc2ccccc2c(=O)[nH]1)NCCN1C(=O)S/C(=C\c2ccccc2Cl)C1=O,-0.4,/,/,-13,/,
COc1cccc(-c2noc(C3CCCN(C(=O)c4ccc(F)cc4F)C3)n2)c1 (configuration not stated),2.7,/,/,8,/,
COCCn1c(SCc2nnc(-c3ccc(OC)c(OC)c3)o2)nnc1-c1ccncc1,-2.2,/,/,-4,/,
CN1C(=O)NC(NC(=O)c2ccco2)(C(F)(F)F)C1=O (configuration not stated),-0.4,11,-62,5,-3%,
COC(=O)C1=CO[C@@H](O[C@@H]2OC(CO)[C@@H](O)[C@@H](O)[C@@H]2O)C2C1CC[C@]2(C)O (some centres not stated),-2.6,/,/,-8,-13%,
CC(=O)Oc1ccc2c(c1)C(=O)c1ccccc1CO2,9.2,0,-41,21,-4%,
CCCCCCCCN1[C@@H](CC(=O)O)c2cc(F)ccc2S1(=O)=O,-5.7,/,/,-4,-2%,
COc1ccc(Cl)cc1N1C(=O)c2cccnc2C1=O,-2.6,/,/,-2,/,
CC(=O)c1cccc(NC(=O)c2cc3nc(C)cc(C)n3n2)c1,1.4,-3,-21,-3,2%,
Cc1cccc(N2CCN(C(=O)c3cc4cc(F)ccc4[nH]3)CC2)c1C,-0.1,/,/,-2,/,
COc1cc(/C=N/NC(=O)C2(O)c3ccccc3-c3ccccc32)ccc1O,-12,-10,-8,-2,1%,
Cc1nc(NC(=O)c2ccccc2)sc1-c1csc(Nc2ccc(F)cc2)n1,-4.5,-7,2,-4,-5%,
CCn1c(C)cc(O)cc1=O,-2.3,/,/,-1,/,
Cc1ccc(Cl)cc1NC(=O)CCC(=O)NCc1ccco1,-0.4,/,/,-5,/,
Cc1ccccc1Nc1nc(N)nc(COC(=O)c2cccc(S(=O)(=O)N(C)c3ccccc3)c2)n1,2.5,5,4,-4,8%,
Cc1ccccc1Nc1nc(N)nc(CSc2nc3ccccc3c(=O)n2CCCO)n1,/,5,-28,12,1%,
CCCc1cc(SCC(=O)Nc2c(C)n(C)n(-c3ccccc3)c2=O)n2c(nc3ccccc32)c1C#N,/,-1,-6,8,13%,
O=C(CSCCO)N1CCc2ccccc21,-1.0,4,-3,0,-1%,
CCCCCCC(=O)N1CCC(c2nc3c(nnn3Cc3ccccc3Cl)c(=O)[nH]2)CC1,9.7,-41,-27,100,78%,
O=C(COc1ccc(F)cc1)NCCN1CCCC1,1.5,/,/,-1,/,
Cc1ccc(/C=C2\SC(=S)N(CCC(=O)NNC(=O)c3cccc(O)c3)C2=O)cc1,-0.1,/,/,7,/,
O=C(NCC1CCCN1S(=O)(=O)c1cccs1)C(=O)Nc1ccccc1 (configuration not stated),1.9,/,/,-4,/,
COc1ccc(NS(=O)(=O)c2cc3c(cc2C)NC(=O)CO3)c(OC)c1,-5.1,/,/,9,/,
Cc1c(Cl)c([N+](=O)[O-])nn1CC(=O)N1CCc2ccccc2C1,0.6,-1,-33,-7,4%,
CSc1ccc(C(=O)C2CCCN(C(=O)c3ccc(C)nc3)C2)cc1 (configuration not stated),-2.7,2,/,-3,6%,
O=C(c1ccc(F)cc1)N1CCCN(c2nc(-c3ccccc3)ns2)CC1,3.1,/,/,0,-2%,
Cc1cc(Nc2ccc(Cl)cc2)nc(N2CCOCC2)n1,3.1,/,/,-5,-3%,
O=C(Nc1cccc(-c2cscn2)c1)C1CCN(Cc2ccc(CO)o2)CC1,0.2,/,/,-7,/,
CNC(=O)c1[nH]nc2c1CCc1cc(OC)ccc1-2,3.0,/,/,4,/,
N#CCSc1nc2cc(C(=O)N3CCCC3)ccc2c(=O)n1Cc1ccccc1,2.6,7,-30,7,-5%,
c1csc(Cc2nn3c(-c4n[nH]c5c4CCC5)nnc3s2)c1,2.8,1,-54,45,0.41µM*,

# Going on with the list:
SMILES,RecA splice inh,Arbovirus anti,YopH inh,Mtb bLac sens,Mtb growth,others
CC1CCN(Cc2c(O)ccc3c2O/C(=C\c2ccco2)C3=O)CC1,-26,7,-23,-8,3%,
COc1cc([N+](=O)[O-])c2ncsc2c1,-1.9,0,-15,0,-6%,
O=C(N1CCCCCC1)N1CCN(S(=O)(=O)c2cccc([N+](=O)[O-])c2)CC1,-2.8,/,/,-3,/,
COc1ccc(/C=C(\NC(=O)c2cccs2)C(=O)Nc2ccc(C)cc2)cc1OC,-1.3,-13,-24,5,-5%,
COC(=O)c1sccc1NC(=S)N1CCC(C)CC1,0.2,3,-2,8,-1%,
CN[C@@H]1C[C@@H](c2ccc(Cl)c(Cl)c2)c2ccccc21,0.8,-22,/,78,9%&31%,
COC(=O)c1cc2sccc2n1CC(=O)Nc1cccc(SC)c1,-5.5,-2,-11,2,-3%,
CCC(C)n1cnc2c(c1=O)c1nc3ccccc3nc1n2Cc1ccc(OC)cc1 (configuration not stated),1.2,8,-29,-1,-2%,
COC(=O)c1ccc(N2CCN(S(=O)(=O)c3ccc4ccccc4c3)CC2)c([N+](=O)[O-])c1,1.8,14,-38,-7,1%,
Cc1cc(N2CCC(C)CC2)n2nc(C)c(-c3ccccc3)c2n1,/,-1,-35,-7,-5%,
CN1CCN(c2ccccc2NC(=O)c2cccc([N+](=O)[O-])c2)CC1,1.2,4,/,-8,1%,
O=C(c1cc(COc2cccc(C(F)(F)F)c2)on1)N1CCC(c2ccccc2)CC1,11,/,/,76,/,
O=C(CN1CCN(c2nc(-c3ccccc3)cs2)CC1)NNC(=O)c1ccc(Br)cc1,-0.6,-3,-17,-4,-2%,
CC(C)c1ccc(N2C(=O)NC(=O)/C(=C/C=C/c3ccco3)C2=O)cc1,-0.4,7,-24,96,-3%,
CC(C)(C)c1ccc(NC(=O)c2c(F)cccc2Cl)cc1,1.2,/,/,-2,2%,
Cc1ccc(OCCn2cc(/C(N)=N/O)c3ccccc32)cc1C,-1.8,-24,-41,1,5%,
Cc1cc(C)c2oc(-c3cccc(NC(=O)c4ccc(F)cc4)c3)nc2c1,-2.7,-4,-3,6,-8%,
COC(=O)C(NC(=O)c1ccccc1)c1ccccc1 (configuration not stated),1.5,1,-20,-17,-8%,
CSc1ccc(CCNC(=O)CCc2nnc3ccc(N4CCCCC4)nn23)cc1,1.5,/,/,50,/,
O=C(OCC(=O)N(C1CCCCC1)C1CCCCC1)c1ccc(O)cc1,13,/,/,4,/,
Cc1nc2ccc(C(=O)N3CCN(c4ccccn4)CC3)cc2s1,1.5,0,-3,-7,2%,
O=C1CSC(c2ccccc2)N1c1ccc(F)cc1F (configuration not stated),1.6,/,/,-1,/,
CC1CC(C)CN(C(=O)C2CCN(S(=O)(=O)c3ccc4c(c3)CC(C)N4C(=O)C3CC3)CC2)C1 (configuration not stated),1.3,/,/,-7,/,
Cc1ccc(C)c(Nc2ncnc3nc[nH]c23)c1,-1.0,6,-45,6,6%,Arbovirus anti repeat=0
COc1cc(C=O)ccc1OCCOCCOc1ccccc1Cl,2.7,5,-17,-4,/,
Cc1cc(C)n2nc(-c3ccc(Br)cc3)cc2n1,4.0,/,/,5,/,
COC(=O)c1c(NC(=O)C(=O)N2CCOCC2)sc2c1CCC2,3.2,/,/,3,/,
Cc1nc(NCCOc2ccccc2)sc1C(=O)Nc1ccccc1,-0.1,/,/,0,7%,
CCCCCn1c(N)c(-c2nc3ccccc3o2)c2c([N+](=O)[O-])nn(CC)c(=O)c21,1.3,-16,-5,4,-3%,
Cc1onc(-c2ccccc2)c1-c1csc(N/N=C/c2ccccc2Cl)n1,1.4,/,/,-7,2%,

# Next section (2 carried over from the part before).
SMILES,RecA splice inh,Arbovirus anti,YopH inh,Mtb bLac sens,Mtb growth,others
CCCCCn1c(N)c(-c2nc3ccccc3o2)c2c([N+](=O)[O-])nn(CC)c(=O)c21,1.3,-16,-5,4,-3%,
Cc1onc(-c2ccccc2)c1-c1csc(N/N=C/c2ccccc2Cl)n1,1.4,/,/,-7,2%,
CCC(=O)Nc1cc2c3c(c1)CCC(=O)N3CCC2,0.3,/,/,-2,/,
Fc1ccc(/C=N/Nc2nccnc2Cl)cc1,0.2,/,/,5,/,
COc1ccc(OC)c(S(=O)(=O)N2CCC(C(=O)NCC3CCCO3)CC2)c1 (configuration not stated),-1.9,3,-4,-7,-3%,
O=P(Nc1cccnc1)(Oc1ccccc1)Oc1ccccc1,3.0,7,-32,5,7%,
CCOC(=O)c1nc2nc(C)c(Cl)c(=O)n2[nH]1,/,0,-6,6,4%,
Cc1ccc(N=C/C(C(=O)C(F)(F)F)=C(\O)c2cccs2)cc1,-6.3,-1,-28,16,-16%,
O=C(COc1ccccc1)Nc1ccc(CSc2ccccc2)cc1,-0.6,0,-29,63,70%,
COc1ccc(CNC(=O)[C@H](NC(=O)C2CCN(C(=O)[C@@H](N)CCSC)CC2)C(C)C)cc1,-0.3,/,/,-4,/,
Cc1ccc(C(=O)NCCCNC(=O)c2cccnc2)cc1,-0.2,/,/,-4,/,
Cc1ccc(C)c(NC(=O)CSc2nnc([C@@H](N)Cc3c[nH]c4ccccc34)o2)c1,/,4,/,?,3%,
CC(C)(C)c1ccc(S(=O)(=O)NCc2ccc(C(=O)NCc3ccccn3)cc2)cc1,-8.3,2,-15,5,6%,
CCOc1ccc(NC(=O)CN(C)C(=O)c2ccc(N3CCCC3)c([N+](=O)[O-])c2)cc1OCC,-3.1,/,/,-11,/,
CC(C)(C)c1csc(NC(=O)Cn2cnc3ccccc3c2=O)n1,-2.7,2,31,50,/,
CC(C)CCNC(=O)c1c(CSc2ccccc2)noc1C(=O)NCc1ccccc1,0.6,/,/,-11,0%,
CCc1nc(N2CCN(C(=O)c3ccccc3)CC2)c2c3c(sc2n1)CCCC3,15,-21,/,3,3%,
CCCCS(=O)CC(O)COCC (configuration not stated),/,4,-18,-3,0%,
COc1cc(C)ccc1Oc1ncnc(N)c1[N+](=O)[O-],-3.6,/,/,-1,/,

# Sorted by length of the SMILES (smallest number first): part of the list above
SMILES,RecA splice inh,Arbovirus anti,YopH inh,Mtb bLac sens,Mtb growth,others
CCCCS(=O)CC(O)COCC (configuration not stated),/,4,-18,-3,0%,
CC(C)(C)c1csc(NC(=O)Cn2cnc3ccccc3c2=O)n1,-2.7,2,31,50,/,
CCc1nc(N2CCN(C(=O)c3ccccc3)CC2)c2c3c(sc2n1)CCCC3,15,-21,/,3,3%,

# Screening results as filed in PubChem.
